High-throughput results deposited in PubChem BioAssay by National Center for Advancing Translational Sciences (NCATS).
RE007 growth inh: less growth of the S. pombe RE007 Vpr strain. S. pombe RE007 Vpr strain, BacTiter-Glo ATP luminescence, 24 h; control for the full effect not named in the record. Potency, µM (titrated, usually from 92.2 µM), inactives show at the highest dose activity change, negative = less growth. hit rate 0.21% among 360,000; active = well fitted falling curve with a large enough effect; inconclusive = small, poorly fitted or top-dose-only effect; inactive = no such curve, though single readings can be large or run the other way;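 note: % is set by controls: 0 for no effect and ±100 for the full control effect; nearly all actives have a fitted effect of over 50% in size; the assay follows cell death caused by Vpr and the record does not say whether a fall means rescue or toxicity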
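Fission yeast RE007 carrying one integrated HIV-1 vpr copy, seeded at OD 0.01 in PMG+AL medium with 23 nL pinned compound. Grown 24 h at 30 degrees; viability read by BacTiter-Glo luminescence after 5 min.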
LASV entry inh: blocks Lassa virus binding to or entry into cells; Lassa virus pseudotype entry inhibition, cell reporter; control for the full effect not named in the record; Potency, µM (highest dose often 37.9 µM), for inactives: top-dose activity change, negative = inhibition, hits mostly inhibitors; hit rate 1.2% among 300,000; active means well fitted inhibition curve with a large enough effect; inconclusive means small, poorly fitted or top-dose-only effect, or effect the other way; inactive means flat fitted curve, though single readings scatter; tested in HEK293 cells; note: % is set by controls: 0 for no effect and ±100 for the full control effect; nearly all actives have a fitted effect of over 50% in size; luciferase read-out
Marburg entry inh: Marburg virus entry inhibition; Marburg virus pseudotyped entry inhibition, cell reporter; control for the full effect not named in the record; about a third of the inactives were read at about 46 µM; Potency, µM (highest dose often 37.8 µM), for inactives: top-dose activity change, negative = inhibition, usual class: inhibitors; hit rate 1.8% among 300,000; AID 540276; active = well fitted inhibition curve with a large enough effect; inconclusive = small, poorly fitted or top-dose-only effect, or effect the other way; inactive = flat fitted curve, though single readings scatter; tested in HEK293 cells; about a fifth of its hits are not listed in these tables; note: % is set by controls: 0 for no effect and ±100 for the full control effect; luciferase read-out
Cruzain inh noDet: blocks cruzain activity in detergent-free assay. P25779. purified cruzain, Z-FR-AMC fluorescence, no detergent. Potency, µM, without a hit: max response, negative = inhibition, actives largely listed as inhibitors. hit rate 2.3% among 200,000. AID 1476; active = well fitted curve in the direction sought with a large enough effect; inconclusive = small, poorly fitted or top-dose-only effect, or another doubt; inactive = no such curve, though single readings can be large; an effect the other way counts as inactive or inconclusive;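 note: plate controls were enzyme without inhibitor for no effect and buffer without enzyme for full effect; nearly all actives have a fitted effect of over 40% in size; top concentration of the series not given in the record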
Target sequence (P25779 123-467 limits assumed): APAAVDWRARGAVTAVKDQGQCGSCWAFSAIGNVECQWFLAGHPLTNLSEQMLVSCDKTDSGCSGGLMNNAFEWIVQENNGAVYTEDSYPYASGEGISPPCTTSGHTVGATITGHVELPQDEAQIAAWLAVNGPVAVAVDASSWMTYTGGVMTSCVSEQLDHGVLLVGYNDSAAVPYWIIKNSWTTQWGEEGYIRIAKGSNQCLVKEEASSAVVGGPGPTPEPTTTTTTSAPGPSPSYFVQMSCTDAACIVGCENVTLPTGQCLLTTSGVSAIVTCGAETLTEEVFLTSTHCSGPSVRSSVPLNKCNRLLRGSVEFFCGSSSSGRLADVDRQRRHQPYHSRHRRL
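Purified cruzain at 1.5 nM, pre-incubated 15 min with compound at room temperature in 100 mM sodium acetate pH 5.5, 5 mM DTT, 0.00005% Triton X-100. Reaction started with 2 uM Z-FR-AMC; AMC fluorescence increase over 60 s gives rate.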
Cruzain inh Det: blocks cruzain activity in presence of Triton detergent. Potency, µM, inactives show max response, negative = inhibition, actives largely listed as inhibitors. P25779. hit rate 0.43% among 200,000. purified cruzain, Z-FR-AMC fluorescence, 0.01% Triton. AID 1478; active = well fitted curve in the direction sought with a large enough effect; inconclusive = small, poorly fitted or top-dose-only effect, or another doubt; inactive = no such curve, though single readings can be large; an effect the other way counts as inactive or inconclusive;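 note: plate controls were neutral wells for no effect and buffer without enzyme for full effect; nearly all actives have a fitted effect of over 40% in size; top concentration of the series not given in the record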
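Detergent-containing arm of a paired screen for aggregation-based inhibition: 0.01% Triton X-100 present. Cruzain at 1.5 nM cleaved 2 uM Z-FR-AMC at pH 5.5 with 5 mM DTT; AMC fluorescence gain over 60 s measured activity.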
SARS PLP yeast: inhibitors of SARS-CoV papain-like protease in yeast. S. cerevisiae expressing SARS-CoV PLpro, growth rescue; control for the full effect not named in the record. Potency, µM (top dose mostly 32.9 µM), without a hit: top-dose activity, positive = growth rescue. hit rate 0.19% among 330,000; note: 0% is about no effect; nearly all actives have a fitted effect of over 55% in size; growth read by luminescence after 48 h
NS1 function inh: influenza NS1 inhibition. S. cerevisiae slowed by influenza A NS1, growth recovery by OD600. AID 2326. Potency, µM (doses to about 46.1 µM), for inactives: at the top dose activity, positive = more growth. hit rate 0.4% among 270,000; note: actives are rising curves; nearly all actives have a fitted effect of over 50% in size
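S. cerevisiae expressing influenza A NS1, grown in glucose, washed, then diluted 1:100 into pH 6.0 -URA galactose medium with 23 nl compound. Growth recovery read as OD600; NS1-free strain serves as control.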
2A StopGo: lowers the luciferase signal of an FMDV 2A StopGo reporter; human cells with a luciferase reporter of 2A StopGo recoding; control for the full effect not named in the record; hit rate 1.2% among 410,000; Potency, µM (titrated, usually from 57.9 µM), inactives show at the top dose signal change, negative = less light; AID 1159524; active = well fitted falling curve with a large enough effect; inconclusive = small, poorly fitted or top-dose-only effect; inactive = no such curve, though single readings can be large or run the other way; tested in HEK293T cells; note: % is set by controls: 0 for no effect and ±100 for the full control effect; nearly all actives have a fitted effect of over 45% in size; luciferase light after 4 h
An asterisk follows results filed as active; ? = inconclusive; . = not tested or not shown; & = joins results of further samples; [ ] = dose if it differs, or a comment. Unless noted, calls come from the whole dose curve; as a rule, active means well fitted rising curve with a large enough effect; inconclusive means small, poorly fitted or top-dose-only effect; inactive means no such curve, though single readings can be large or run the other way. Potency is the fitted concentration of half-maximal effect.

SMILES	RE007 growth inh	LASV entry inh	Marburg entry inh	Cruzain inh noDet	Cruzain inh Det	SARS PLP yeast	NS1 function inh	2A StopGo
O=C(CN1CCCCC1)N/N=C/c1ccc(Cl)cc1Cl	2%	.	.	.	.	0%	-8%	25%
O=C(/C=C/c1ccccc1)Nc1ccc(CN2CCOCC2)cc1	2%	.	.	-2%	-4.2%	?	-1%	33%[activator]
CC(=O)c1ccc(N2CCN(C(=O)CCN3C(=S)NC(C)(C)CC3C)CC2)cc1 (stereo not drawn)	-15%	?	15%	.	.	-5%	.	14%
Cc1ccc(/C=N/N2CCN(Cc3ccccc3)CC2)o1	-20%	1%	?	5%	4.2%	-1%	-6%	27%
CCOc1ccc(C(=O)OCc2cc(=O)n3nc(C(C)C)sc3n2)cc1	.	-7%[46.1 µM]	.	5%	-1.5%	.	.	-6%
CCCCOCCO	-12%	-8%	-1%[46.1 µM]	-9%&-4%	1.1%&4.5%	.	.	10%
O=C(CCNC(=O)c1ccc(Br)cc1)NCc1cccnc1	8%	-3%	12%	.	.	18%	.	-18%
Cc1ccc(C)n1-c1nnc(N2CCC(C(=O)NCCCN3CCN(C)CC3)CC2)s1	9%	.	.	.	.	4%	11%	-11%
Cn1c(N)c(C(=O)CSc2nnc(N)s2)c(=O)n(C)c1=O	?	8%	9%	.	.	5%	.	9%
COc1cccc(Cn2nc(SC)c(S(=O)(=O)c3ccccc3)c2N(C(C)=O)C(C)=O)c1	.	?	-21%[46.1 µM]	29%	-5.7%	.	.	-23%
Cc1c(C(=O)C(=O)NCc2cccs2)c2ccccc2n1C	13%	-2%	?	.	.	-11%	.	38%[activator]
COc1cccc(/C=C2\SC(=S)N(N3C(=O)CCCC3=O)C2=O)c1	-13%	1%	3%	.	.	-3%	.	12%
Cc1cc(C)c(S(=O)(=O)NCC2CCC(C(=O)NCc3ccc4c(c3)OCO4)CC2)c(C)c1 (stereo not drawn)	-7%	-7%	?	-2%	-1.2%	2%	5%	.
COC(=O)c1c(NC(=O)c2ccoc2C)sc2c1CCC2	-20%	6%	-20%	-11%	-7.1%	1%	-2%	2%
Cc1ccc2nc(N3CCC(C(=O)O)CC3)nc(-c3ccccc3)c2c1	-20%	-15%	0%	?	-6.2%	-10%	-117%	-18%
NC(=O)c1oc2ccccc2c1NC(=O)c1ccccc1	-13%	0%	16%[46.1 µM]	2%	-2.9%	1%	-62%	-9%
O=S1(=O)C[C@H]2NC(=S)N(c3ccccc3)[C@H]2C1	2%	.	.	0%	-1.9%	-12%	2%	-1%
O=C(NCCC1=CCCCC1)C1CCCN(S(=O)(=O)c2cccnc2)C1 (stereo not drawn)	-11%	.	.	2%	-5.1%	0%	-7%	-8%
CCOc1ccc(CN(CCO)CCO)cc1C(=O)OC	0%	-1%	-1%	-2%	9.4%	3%	-2%	-1%
O=C(CC1S/C(=N/N=C/C=C/c2ccccc2)NC1=O)Nc1ccc(C(=O)O)cc1 (stereo not drawn)	10%	-10%[46.1 µM]	6%[46.1 µM]	.	.	4%	.	-3%
COC(=O)c1sc(NC(=O)c2c(F)cccc2F)c(C#N)c1C	-12%	-9%[46.1 µM]	-16%[46.1 µM]	.	.	-1%	1%	-11%
O=C(CSc1oc(-c2ccco2)nc1S(=O)(=O)c1ccccc1)NCC1CCCO1 (stereo not drawn)	-14%	22%	?	2%	-4.4%	5%	-16%	2%
COc1ccc(OC)c(NC(=O)CSc2nnc(C3CCCCC3)o2)c1	13%	-4%	13%[46.1 µM]	.	.	-1%	-6%	-9%
Cc1cccc(C(=O)OCC(=O)N2CCCC2=O)c1[N+](=O)[O-]	-19%	3%	-2%	.	.	2%	.	10%
COc1ccc(S(=O)(=O)NCCc2c[nH]c3ccccc23)cc1OC	2%	-4%[46.1 µM]	-3%[46.1 µM]	.	.	5%	6%	43%[activator]
CCCn1c(=O)c(C(=O)NNS(=O)(=O)c2ccc(Cl)cc2)c(O)c2ccccc21	-8%	3%	10%	8%	-5.9%	-30%	15%	-22%
Cc1cc(C)cc(NC(=O)c2ccc([N+](=O)[O-])o2)c1	?	?	?	.	.	-6%	.	-6%
O=c1ccc(N=Nc2ccccc2)ccc1O	?	?	-2%[46.1 µM]	.	.	-7%	-99%	-21%
Cc1ccc(S(=O)(=O)NCC(=O)Nc2ccc(C(F)(F)F)cc2)cc1	7%	1%	-2%	-30%	1.8%	-1%	-3%	-20%
Cc1cccc(NS(=O)(=O)c2ccc3c(c2)C(C)(C)C(=O)N3C)c1	.	5%[46.1 µM]	.	-7%	-3.5%	.	.	64%[activator]
Cc1cccc(NC(=O)c2ccc([N+](=O)[O-])s2)c1C	?	3%	-37%	-1%	-3.5%	-101%	-2%	2%
COC(=O)C(C#N)c1nc2ccccc2nc1N1CCN(Cc2ccc3c(c2)OCO3)CC1 (stereo not drawn)	.	.	.	-1%	-7.4%	1%	2%	.
Nc1ccc(Cl)c(Cl)c1	1%	-12%	-18%[46.1 µM]	-4%	-1.2%	.	.	10%
CC(C)(C)OC(=O)N1CCC(C(N)=O)CC1	-6%	0%	20%	-7%	0.5%	-9%	15%	-15%
CSC(=N/N=C(\N)c1cnccn1)SC	10%	11%	1%	8%	-4.2%	-5%	3%	-8%
c1ccc(-c2nccc(-c3ccco3)n2)nc1	?	19%[46.1 µM]	27%[46.1 µM]	.	.	1%	-1%	12%
COc1cccc(-n2c(=O)c3sccc3n(Cc3cc(=O)n4cc(Cl)ccc4n3)c2=O)c1	.	-1%[46.1 µM]	.	-8%	-4.2%	.	.	-21%
Cc1cc(SCCC(=O)O)nc2c(C)cccc12	-22%	1%	6%	-4%	-2.5%	-22%	-145%	-17%
CCCc1c(C(=O)NNc2ccccc2OC)cnn1-c1ccccc1	7%	-13%[46.1 µM]	?	.	.	-1%	4%	24%
O=C(NN1CCOCC1)c1cccc2ccccc12	13%	17%	3%	13%	-0.8%	-4%	-3%	-1%
Cc1csc(NC(=O)CSc2nnc(Cc3cccn3C)n2-c2ccc(F)cc2)n1	-9%	.	-2%	?	1.1%	5%	3%	-16%
O=C(Nc1cccc(NC(=O)c2ccco2)c1)c1ccc2c(c1)OCCO2	2%	-25%[46.1 µM]	-26%[46.1 µM]	.	.	1%	-3%	9%
CCOC(=O)N1CCC(NC(=O)c2cc3sccc3n2CC)CC1	6%	-3%	-27%	9%	-2.0%	-2%	-1%	?
COc1cc(NC(=O)c2ccco2)ccc1NC(=O)c1ccccc1Cl	41%	13µM*	?	-5%	-5.3%	-19%	-39%	12%
CCN(CCNC(=O)C1CCN(S(=O)(=O)c2c(C)noc2C)CC1)c1ccccc1	-24%	7%[46.1 µM]	-3%[46.1 µM]	.	.	1%	.	-19%
CCCOc1ccccc1N1C(=O)CC(N(O)c2ccccc2)C1=O (stereo not drawn)	3%	-25%	9%[46.1 µM]	.	.	-1%	0%	-22%
COc1cc(/C=C2/C(=N)N3N=C(CC(=O)N4CCOCC4)SC3=NC2=O)ccc1OCc1ccccc1F	-2%	22%[46.1 µM]	11%[46.1 µM]	.	.	.	17%	8%
COc1ccc(CN2C(=O)c3cccnc3C2=O)cc1S(=O)(=O)N(C)c1cccc(C)c1	-2%	.	.	.	.	0%	-4%	-7%
COc1ccc(CCN=C(N)NS(=O)(=O)c2cc(F)ccc2F)cc1	5%	.	.	.	.	-1%	2%	7%
Cc1cc(NC(=O)C2CC2)n(-c2nc3ccccc3s2)n1	-1%	-21%	?	.	.	0%	.	10%

(next part)
SMILES	RE007 growth inh	LASV entry inh	Marburg entry inh	Cruzain inh noDet	Cruzain inh Det	SARS PLP yeast	NS1 function inh	2A StopGo
Cc1cc(NC(=O)COc2ccc(C)c(C)c2)no1	12%	26%	-2%[46.1 µM]	.	.	8%	-2%	20%
O=C(NNc1nc2cc3c(cc2s1)OCO3)c1cccc(F)c1	7%	14%	?	0%	-7.2%	-4%	20%	29%
O=C(O)CC(NC(=O)c1ccco1)c1ccco1 (stereo not drawn)	-3%	11%[46.1 µM]	3%[46.1 µM]	.	.	8%	5%	2%
Cc1noc(C)c1N=Nc1ccccc1C(=O)O	1%	31%[46.1 µM]	?	.	.	-1%	.	1%
COc1cc(NC(=O)c2ccc3snnc3c2)cc(OC)c1	6%	28%[46.1 µM]	-1%[46.1 µM]	.	.	-1%	2%	3%
CN1CCCN(C(=O)COc2cccc(C(F)(F)F)c2)CC1	-6%	12%[46.1 µM]	18%[46.1 µM]	.	.	-8%	15%	17%
CCOc1ccc(/C=N/n2c(COc3ccccc3)n[nH]c2=S)cc1OC	5%	.	.	.	.	-1%	7%	-9%
Cn1c(CN2CCOCC2)nc2cc(NC(=O)c3ccc(Cl)cc3)ccc21	4%	-30%	-27%	-5%	-6.9%	2%	-8%	?
COC(=O)C1=NN(c2ccccc2)C2C(=O)N(c3ccccc3OC)C(=O)C12 (stereo not drawn)	-1%	-14%	9%	8%	-11%	2%	7%	-6%
CCn1c(SC/C=C/c2ccccc2)nnc1-c1cnccn1	-7%	0%	-9%	-1%	-5.8%	-8%	-94%	16%
Cc1nc2sc3c(c2c(=N)n1N)CC(C)(C)OC3	-1%	-2%	-18%	9%	-0.6%	1%	6%	-5%
Cc1ccc(-n2nnnc2SCC(=O)N2c3ccccc3NC(=O)C2(C)C)cc1	-14%	?	?	-14%	-0.7%	7%	-27%	?
Cc1ccccc1N1CC(C(=O)N2CC(C)OC(C)C2)CC1=O (stereo not drawn)	4%	8%[46.1 µM]	-23%[46.1 µM]	.	.	-2%	-51%	1%
CCCN1CCCC(c2cccc(O)c2)C1 (stereo not drawn)	.	.	?	-2%	3.2%	.	-6%	.
CCC(C(=O)NCc1cccc(Br)c1)n1nc(C)c2c(C)n(-c3ccccc3)nc2c1=O (stereo not drawn)	.	-19%[46.1 µM]	.	-1%	-6.3%	.	.	?
Cc1nn(CC(C)C(=O)N2CCN(S(=O)(=O)c3ccc(Cl)cc3)CC2)c(C)c1C (stereo not drawn)	-8%	.	-16%[46.1 µM]	.	.	17%	0%	-22%
COc1ccc(/C=C(\NC(=O)c2ccc(Cl)cc2)C(=O)NCCCn2ccnc2)cc1OC	-8%	16%[46.1 µM]	2%[46.1 µM]	.	.	0%	0%	20%
CC1CCCCN1C(=O)CSc1nnc2c(n1)[nH]c1ccc(F)cc12 (stereo not drawn)	28%	16%[46.1 µM]	-1%[46.1 µM]	.	.	1%	-4%	20%
